Screening results deposited in PubChem BioAssay by National Center for Advancing Translational Sciences (NCATS).
VDR inh: vitamin D3 receptor (human) inhibition; VDR-SRC2-3 peptide fluorescence polarization, 2 h; Potency, µM, without a hit: max response, negative = inhibition, actives largely listed as inhibitors; 400,000 tested, 0.93% active; AID 504847; active = well fitted inhibition curve with a large enough effect; inconclusive = small, poorly fitted or top-dose-only effect, or another doubt; inactive = no such curve, though single readings can be large or run the other way; note: series mostly up to about 120 µM
Target sequence (P11473 whole entry, looked up): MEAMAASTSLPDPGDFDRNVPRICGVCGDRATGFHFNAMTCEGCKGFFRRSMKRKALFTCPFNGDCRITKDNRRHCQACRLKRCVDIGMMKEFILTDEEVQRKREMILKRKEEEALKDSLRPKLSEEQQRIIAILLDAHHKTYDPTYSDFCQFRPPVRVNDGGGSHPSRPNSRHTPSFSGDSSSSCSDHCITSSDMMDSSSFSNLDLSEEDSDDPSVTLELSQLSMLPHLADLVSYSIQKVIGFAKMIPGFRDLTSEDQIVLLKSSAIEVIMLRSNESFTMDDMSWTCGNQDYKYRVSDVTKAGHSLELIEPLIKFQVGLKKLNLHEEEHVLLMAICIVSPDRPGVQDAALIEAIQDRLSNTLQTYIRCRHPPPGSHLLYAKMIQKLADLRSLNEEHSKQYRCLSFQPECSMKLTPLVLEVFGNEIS
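Measured by FP: displacement of SRC2-3 coactivator peptide from VDR by library compounds, following a two-hour ambient incubation.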
* hit, by the source's call; ? = inconclusive; & = joins results of further samples; [ ] = remark or other dose. % is set by controls: 0 for no effect and ±100 for the full control effect; potency is the fitted concentration of half-maximal effect. Not all compounds are listed. The share of hits here may be higher or lower than overall.

VDR inh	smiles
-6%	COc1cccc2c(Nc3ccccc3C)cc(C)nc12
10%	COC(=O)c1ccc(COc2ccccc2/C=N/NC(=O)c2cccnc2)cc1
?	O=C(CSC1=NCCS1)Nc1nc2c(s1)CCCC2
-2%	CC(NC(=S)Nc1c(Br)cccc1OC(F)F)C(C)(C)C (stereo unspecified)
15%	O=C(COC(=O)CSc1cc(Cl)ccc1Cl)Nc1ncc(C(F)(F)F)cc1Cl
41%[activator]	CCn1c(SCC(N)=O)nnc1-c1ccc(S(=O)(=O)N2CCN(C)CC2)cc1
5%	COc1ccc(NC(=O)c2ccc3oc(=O)c(S(=O)(=O)c4ccc(C)cc4)cc3c2)cc1OC
-17%	CCCCN(C(=O)C1CCC1)c1c(N)n(Cc2ccccc2)c(=O)[nH]c1=O
-1%	O=C(Nc1ccc(SC(F)F)cc1)C1=COCCO1
?	C=CCN(c1ccccc1OC)S(=O)(=O)c1cccc(C(=O)OCC(=O)N2CCOCC2)c1
10%	CCCC(=O)Nc1ccc2nn(-c3ccc(CC)cc3)nc2c1
1%	COC(=O)CN(c1ccccn1)S(=O)(=O)c1ccccc1

Copied from the listing for reference:
VDR inh	smiles
?	O=C(CSC1=NCCS1)Nc1nc2c(s1)CCCC2
-2%	CC(NC(=S)Nc1c(Br)cccc1OC(F)F)C(C)(C)C (stereo unspecified)

Next part
VDR inh	smiles
1%	COc1ccccc1CNC(=O)COC(=O)c1cc(=O)c2ccccc2o1
-19%	Cc1cccc(-c2ocnc2C(=O)Nc2ccccc2C(=O)N2CCCC2)c1
1%	COc1ccc(C(=O)CN2C(=O)NC(C)(c3ccc(C)cc3)C2=O)cc1OC (stereo unspecified)
?	COCOc1cc(O)c(C(=O)/C=C/c2ccccc2)c(OCOC)c1
-29%	COC(=O)CCn1nc(-c2ccc(Cl)cc2)c2ccccc2c1=O
-6%	CNc1ccnc(-c2ccccc2CN(C)C)n1
-7%	CC(C)(C)c1ccc(/C=C/C(=O)N2CCc3ccccc3C2)cc1
-1%	COC(=O)n1ccc(C(=O)Nc2ccccc2F)n1
-2%	COc1ccc(C2(C)NC(=O)NC2=O)cc1OC (stereo unspecified)
-18%	O=C(CCc1nnc(CCCc2ccccc2)o1)NCCN1CCOC1=O
5%	COC(=O)N1CCC2(CCCN(Cc3nccs3)C2)CC1
4%	COCC(=O)Nc1sc2c(c1C(=O)OC)CCC(C)C2 (stereo unspecified)
2%	COc1cccc(N2CCN(CC(=O)c3c[nH]c4ccc(OC)cc34)CC2C)c1 (stereo unspecified)
-15%	Cc1c(Cc2ccccc2)c(=O)oc2c(C)c(OC(C)C(=O)N[C@@H](Cc3ccccc3)C(=O)O)ccc12 (stereo partly specified)
13%	Cc1cc(C)c(C(=O)COC(=O)c2ccc([N+](=O)[O-])o2)cc1C
-17%&-21%	CCOc1ccc(CNC(=O)c2ccc3c(c2)N(CC)CCS3)cc1
-15%	CC(C)CN(C(=O)CN(C)CC(=O)Nc1ccccc1C#N)c1c(N)n(CC(C)C)c(=O)[nH]c1=O
5%	CC1=CS(=O)(=O)CC1Sc1nc2ccccc2[nH]1 (stereo unspecified)
2%	CCCCN(C)CCCNC(=O)CN1N=C(c2ccc(OC)cc2)CCC1=O
-25%	COc1ccc(NC(=O)c2c(NC(=O)CCC(=O)O)sc3c2CCCCC3)cc1
-23%	CN1CCN(C(CNC(=O)C(=O)Nc2ccc3c(c2)OCO3)c2ccc(F)cc2)CC1 (stereo unspecified)
-14%	O=C(CCC(=O)OCC(=O)c1ccc(-c2ccccc2)cc1)Nc1cccc2cccnc12
5%	CCCCOc1ccc(C2C(=O)N(C3CCCCC3)CC(=O)N2C2CCCCC2)cc1 (stereo unspecified)
-21%	COc1cc([N+](=O)[O-])c2nc(C(=O)O)ccc2c1
-15%	COc1ccc([N+](=O)[O-])cc1N(CC(=O)NCCC1=CCCCC1)S(C)(=O)=O
7%	O=c1c2ccccc2nc(/C=C/c2ccc(Br)cc2)n1CCO
-10%	CCOc1ccc(OCC)c(Nc2cc(C)nc3nc(C)nn23)c1
-5%	O=C(COC(=O)C1C2CC3OC(=O)C1C3C2)Nc1ccccc1 (stereo unspecified)
-25%	CCc1cc(=O)oc2cc(C)cc(OCC(=O)N[C@@H](CSCc3ccccc3)C(=O)O)c12
-11%	CC1CC(NC(=O)c2c(O)nc3sccn3c2=O)CC(C)(C)C1 (stereo unspecified)
16%	O=C1C2C(C(=O)N1c1ccncc1)C1C=CC2C12CC2 (stereo unspecified)
-8%	OCCNc1nc(Nc2ccc(Cl)cc2)nc(N2CCCC2)n1
18%	COc1cc2c(cc1NC(=O)c1cccnc1)oc1ccccc12
-17%	O=C(CCl)Nc1ccc(N=Nc2ccccc2)cc1
79µM*	COc1ccccc1NCC(=O)c1ccc(Cl)cc1
-3%	Cc1ccc2nc3sc(C(=O)NCc4ccco4)c(N)c3cc2c1
-9%	CC(=O)c1c(C)nc2ccc([N+](=O)[O-])cc2c1-c1ccccc1
13%	CC(=O)c1ccc(NC(=O)CCCc2nc(-c3cccc(C)c3)no2)cc1
-14%	O=C(NCC1OCCCN1S(=O)(=O)c1ccc(F)cc1)C(=O)NC1CCCC1 (stereo unspecified)
1%	COc1ccc(C)c2sc(NC(=O)c3ccc(S(=O)(=O)N4CCCCC4)cc3)nc12
12%	O=C(COC(=O)[C@@H]1CC(O)CN1S(=O)(=O)c1ccccc1[N+](=O)[O-])Nc1ccc2ccccc2c1 (stereo partly specified)
-9%	Cc1cc(C(=O)NCCc2ccc(S(N)(=O)=O)cc2)c(C)o1
4%	COc1cc2c(cc1OC)CN(c1ncccc1[N+](=O)[O-])CC2
2%	COC(=O)c1c(NC(=O)C(C)Oc2ccc(Cl)c(C)c2)sc(C)c1C (stereo unspecified)
12%	COc1cc2c(cc1OC)C(C)N(C(=O)c1cc3c(C)cc(C)cc3[nH]1)CC2 (stereo unspecified)
-1%	Cc1cccc(N2CCN(C(=O)CCc3nnc4n(CC(C)C)c(=O)c5ccccc5n34)CC2)c1C
3%	CC1=Nc2ccccc2N=C(NC(=O)CSC(=S)N2CCCCC2)C1c1ccccc1 (stereo unspecified)
-6%	Cn1c(=O)cc(OCCCC(=O)NCc2ccc3c(c2)OCO3)c2ccccc21

Structural class: those above with an aryl thioether with sulfur outside any ring.
VDR inh	smiles
15%	O=C(COC(=O)CSc1cc(Cl)ccc1Cl)Nc1ncc(C(F)(F)F)cc1Cl
41%[activator]	CCn1c(SCC(N)=O)nnc1-c1ccc(S(=O)(=O)N2CCN(C)CC2)cc1
-1%	O=C(Nc1ccc(SC(F)F)cc1)C1=COCCO1
5%	CC1=CS(=O)(=O)CC1Sc1nc2ccccc2[nH]1 (stereo unspecified)

(list continues)
VDR inh	smiles
8%	C[C@@H]1CN([C@@H](C)CO)C(=O)c2cccc(NC(=O)c3nc4ccccc4s3)c2O[C@@H]1CN(C)CC1CC1
2%	CCOc1ccc(C(=O)NCCNC(=O)c2ccc(OCC)cc2)cc1
4%	O=C(N/C(=C\c1ccco1)C(=O)N1CCCC1)c1cccs1
-12%	NC(=O)c1nn(CC(=O)Nc2ccc3c(c2)OCO3)cc1[N+](=O)[O-]
2%	O=c1ccn(CCCBr)c(=O)[nH]1
66%[activator]	COc1ccccc1NC(=O)c1oc2ccccc2c1NC(=O)Cc1cccs1
2%	CCOc1cc(C(=O)Nc2ccc3nc(Nc4cccc(Cl)c4)cc(C)c3c2)cc(OCC)c1OCC
-6%	O=C(CCc1nc2ccccc2c(=O)[nH]1)OCc1ccccc1F
0%	NS(=O)(=O)c1ccc(NC(=O)C2COc3ccccc3O2)cc1 (stereo unspecified)
13%	COc1cccc(C2NC(=O)NC(O)(C(F)(F)F)C2C(=O)c2cccnc2)c1OC (stereo unspecified)
-10%	O=c1c(NCCc2ccc(Cl)cc2)nccn1-c1ccccc1
7%	CCc1nnc(NC(=O)C2Cc3ccccc3CN2S(=O)(=O)c2cccs2)s1 (stereo unspecified)

Retrieved by compound from above:
VDR inh	smiles
-21%	COc1cc([N+](=O)[O-])c2nc(C(=O)O)ccc2c1
-3%	Cc1ccc2nc3sc(C(=O)NCc4ccco4)c(N)c3cc2c1
-6%	COc1cccc2c(Nc3ccccc3C)cc(C)nc12
10%	CCCC(=O)Nc1ccc2nn(-c3ccc(CC)cc3)nc2c1
13%	CC(=O)c1ccc(NC(=O)CCCc2nc(-c3cccc(C)c3)no2)cc1

Ordered by length of the SMILES (rising): five of the compounds above.
VDR inh	smiles
2%	O=c1ccn(CCCBr)c(=O)[nH]1
0%	NS(=O)(=O)c1ccc(NC(=O)C2COc3ccccc3O2)cc1 (stereo unspecified)
66%[activator]	COc1ccccc1NC(=O)c1oc2ccccc2c1NC(=O)Cc1cccs1
2%	CCOc1cc(C(=O)Nc2ccc3nc(Nc4cccc(Cl)c4)cc(C)c3c2)cc(OCC)c1OCC
8%	C[C@@H]1CN([C@@H](C)CO)C(=O)c2cccc(NC(=O)c3nc4ccccc4s3)c2O[C@@H]1CN(C)CC1CC1

The list goes on.
VDR inh	smiles
-7%	O=c1cc(-c2ccco2)oc2ccc(Cl)cc12
-2%	CC(C)n1nc(C(=O)NCCc2ccc(S(N)(=O)=O)cc2)c2ccccc2c1=O
1%	CC(C)NC(=S)Nc1ccc2[nH]c(=O)[nH]c2c1
0%	CC(C)(C)c1ccc(/C=N/n2cnnc2)cc1
7%	O=C(Cc1c(C(=O)O)[nH]c2ccccc12)NC1CCCC1
-7%	COc1cccc(NC(=O)NCc2c(-c3ccccc3)noc2C)c1
5%	NC(=Nc1ccc(Cl)cc1)c1ccccc1
-11%	N#Cc1cc(C(=O)Cc2ccccc2)c[nH]1
8%	COc1ccc(CCN2C(=O)N(c3ccc(F)cc3)C(=O)C2CC(=O)Nc2ccccc2)cc1 (stereo unspecified)
2%	C=CCNC(=O)c1ccc2nc(-c3ccccc3)c(-c3ccccc3)nc2c1
-18%	CC(C)c1nc2sc3ccccc3c(=O)c2c(=O)n1Cc1ccccc1
9%	NC(CCC(=O)NC(CCSC(CC(=O)O)C(=O)O)C(=O)NCC(=O)O)C(=O)O (stereo unspecified)
-5%	Cc1ccc(C(=O)N/N=C2\CCSC2)cc1[N+](=O)[O-]
-4%	Cc1ccccc1C(=O)N1CCc2cc(-c3nc(NC(=O)Cc4ccc5c(c4)OCO5)sc3C)ccc21
-4%	Cc1[nH]c2ccccc2c1C(=O)CN1CCC(C(N)=O)(N2CCCCC2)CC1
-4%	O=C(COc1ccc(Cl)cc1)NCCC1=CCCCC1
10%	CC(O)[C@H]1CNC(=O)C(=O)N1CCCCC1CCCCC1 (stereo partly specified)
8%	COc1ccc2c(CNC3CCCC3)c(C(=O)O)n(Cc3ccccc3C)c2c1
-5%	Oc1ccc(-c2csc(NCc3ccco3)n2)cc1
-19%	O=C(/C=C/c1ccccc1)c1ccoc1
-17%	CCn1nc(C)c(/C=N/NC(=O)c2ccc3c(c2)c(C)c(C)n3Cc2ccccc2)c1C
3%	CCCc1c(C(=O)N/N=C/c2ccco2)nnn1-c1nonc1N
-8%	CC(=O)c1ccc(NC(=O)CSc2ccc3nnc(-c4ccccn4)n3n2)cc1
-2%	CC1=NN(c2ccccc2)C(=O)C1C(=O)c1ccc(Cl)cc1 (stereo unspecified)
2%	Cn1c(CCC(=O)Nc2ccccc2F)nnc1SCC(=O)Nc1ccccc1Cl
-22%	COc1cc(C(=O)N2C(=O)CCC2=O)cc(OC)c1OC
14%	CC(Sc1nc(N)cc(=O)[nH]1)C(=O)NNC(=O)c1cccc(Cl)c1 (stereo unspecified)
6%	COc1cccc(-c2cc(C(F)(F)F)nc(-n3cncn3)n2)c1
24%	Cc1csc(NC(=O)Cn2nc(C)c([N+](=O)[O-])c2C)n1
-29%	O=S(=O)(/N=C(\c1ccccc1)N1CCOCC1)c1ccc(Cl)cc1
5%	COc1ccccc1NC(=O)CN(c1ccccc1OC)S(=O)(=O)c1ccccc1
0%	CCC(C(=O)NCCC1=CCCCC1)c1ccccc1 (stereo unspecified)
-13%	COc1ccc2[nH]c3c(c2c1)CCN1C(=O)N([C@@H](C)C(=O)NCc2ccco2)C(=O)[C@]31C
-23%	C/C(=N\NC(=S)NC(C)C)c1ccccc1
5%	Cc1ccc2c(c1)-c1c(cnc3cc(-c4ccc(F)cc4)nn13)CO2
3%	CNC(=S)NNC(=O)COc1ccccc1C
8%	Cc1cccc(NC(=O)C2CCCN(S(=O)(=O)c3cccs3)C2)c1C (stereo unspecified)
-3%	Cc1ccc(C(=O)O/N=C(\N)Cc2cccs2)cc1[N+](=O)[O-]
14%	CCOC(=O)N1CCN(c2nc(C)c3c(n2)CCCC3=O)CC1
6%	Cc1ccc2nc3c(cc(C#N)c(=O)n3-c3nnc(SCc4ccccc4Cl)s3)c(=O)n2c1
5%	COC(=O)NNC(=O)c1cccc(C)c1
-2%	O=C(NNc1nc2ccccc2s1)C1CC1
-6%	Cc1ccc(Cn2c(C)c3cnn(CC(=O)NCCN4CCOCC4)c(=O)c3c2C)cc1
-4%	C=CCc1ccc(OCCCCOc2ccc(C(=O)O)cc2)c(OC)c1
1%	Cc1nnc2sc(-c3ccc(N(C)C)cc3)nn2c1=O
-13%	COc1ccc(C(O)(C(=O)NNc2ccc(C)cc2)c2cccs2)cc1 (stereo unspecified)
-20%	COc1cc(C(=O)N[C@H](C(=O)Nc2nnc(C3CC3)s2)C(C)C)cc(OC)c1OC
-9%	Cc1occc1C(=O)N1CCCC(Nc2ccc(F)c(F)c2)C1 (stereo unspecified)
4%	CCC(=O)N1CC2(CC(c3cccc([N+](=O)[O-])c3)=NO2)C[C@H]1C(=O)NCC(N)=O (stereo partly specified)
6%	C=CCn1c(SCc2ccc(C#N)cc2)nnc1-c1ccccc1
2%	O=C1CCCCC1Nc1ccc(Cl)cc1 (stereo unspecified)
-1%	O=C(Cc1csc(Nc2nc(=S)[nH]c3ccccc23)n1)NCc1ccc(Cl)cc1
